Screens from PubChem BioAssay.
Sa growth 42C: blocks Staphylococcus aureus growth; S. aureus RN4220 growth, OD600, 20 h, 42 °C; active compounds read low; relative growth, % (concentration not given with the values); actives 0.53% (n = 170,000);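 active = growth at 42 °C up to 50% and 20 or more points under that at 30 °C, or under 10% at both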;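 note: 300 nL library stock went into each well; scaled to the means of positive and negative controls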
GIV Gai3 FP: blocks GIV peptide binding to rat Galpha-i3 | percent of control (FP), % (concentration not given with the values) | Galpha-i3/FITC-GIV peptide fluorescence polarization, 90 min; active compounds read low; scaled: aluminum fluoride 0%, vehicle 100% | actives 0.42% (n = 210,000) | AID 1224905;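 active = replicate mean at 85% of control or lower, very high polarization wells dropped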;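 note: wells of about 15 µL received 100 nL stock; the first replicate is given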
Target sequence (P08753 whole entry, looked up): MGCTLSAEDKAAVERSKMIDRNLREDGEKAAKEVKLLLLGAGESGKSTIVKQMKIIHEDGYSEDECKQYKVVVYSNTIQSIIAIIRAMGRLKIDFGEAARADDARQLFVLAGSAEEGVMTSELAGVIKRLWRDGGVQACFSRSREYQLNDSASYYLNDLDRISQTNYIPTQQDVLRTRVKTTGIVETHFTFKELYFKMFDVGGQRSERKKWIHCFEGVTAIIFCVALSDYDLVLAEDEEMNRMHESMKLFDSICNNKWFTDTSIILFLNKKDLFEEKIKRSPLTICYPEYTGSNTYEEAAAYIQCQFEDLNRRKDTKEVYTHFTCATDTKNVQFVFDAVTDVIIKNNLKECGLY
HCMV UL50-53 inh: disrupts HCMV UL50-UL53 complex binding. actives 0.15% (n = 190,000). inhibition, % (test concentration not listed). HTRF UL50-UL53 interaction, normalized percent inhibition. AID 1918969;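 active = both replicates at 50% or more, plus weaker picks with an unusually low signal ratio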;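 note: stock transfer was 100 nL into about 20 µL; 0% = negative control wells and 100% = wells with untagged competitor protein; inactives centre near -12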
Sa growth 42C second temp: further read-out of Sa growth 42C, marked with its call; relative growth, %; measured here: growth at 30 °C;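 optical density after 20 h as mean of two plates; 100% = untreated growth and lower means inhibition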
The depositor's hits bear a star; / = no result given; & = joins results of further samples. Outcome played no part in choosing rows; 0.83% or so of the library scored in one or more.

Fields: Sa growth 42C, GIV Gai3 FP, HCMV UL50-53 inh, Sa growth 42C second temp
> COC(=O)c1ccc(-c2csc(C)n2)s1
  91, 101, -54, 88
> C=CCN1C(=S)NC2CC1(C)Oc1c(OCC)cccc12 (stereo unspecified)
  91, 99, -8, 96
> CC(C)CCN1CC(C(=O)NC2CCCCCC2)CC1=O (stereo unspecified)
  115, 102, /, 78
> COc1ccc(NC(=O)C2CC(=O)N(CCc3ccccc3)C(=Nc3ccccc3)S2)cc1 (stereo unspecified)
  /, 114, 20, /
> COc1ccc(NC(=O)CC2C(=O)N(c3ccccc3)C(=O)N2Cc2cccnc2)cc1 (stereo unspecified)
  124, 105, /, 90
> COc1ccc(N(CC(=O)NCCc2ccc(OC)c(OC)c2)S(=O)(=O)c2ccc(OC)c(OC)c2)cc1
  /, 103, -8, /
> COc1cccc(C2CC(=O)Nc3c2c(C)nn3-c2ccc3nncn3n2)c1OCc1ccccc1 (stereo unspecified)
  /, 95, -18, /
> O=C(NCC(c1ccccc1)c1c[nH]c2ccccc12)c1ccccc1Br (stereo unspecified)
  /, 105, -20, /
> Cc1ccc(-c2onc3ccc(-c4cc(C(=O)O)c5ccccc5n4)cc23)cc1
  /, 117, -57, /
> Cc1nc2c(ccc3nc(NC(=O)c4ccc(S(=O)(=O)N5CCc6ccccc65)cc4)sc32)s1
  /, 108, -6, /
> CCN1CCN(C(=O)c2ccc(Br)o2)CC1
  113, /, -2, 94
> N#C/C=C/N1CCc2ccccc2C1
  106, /, -4, 81
> COc1ccc(NC(=O)c2nn(C)c(C(F)(F)F)c2Cl)c(C)c1
  /, 102, 7, /
> Cc1ccc2ncc(NC(=O)c3ccccc3C)c(=O)n2c1
  /, 102, -100, /
> COC(=O)c1c(CC=C(C)C)c(C)nc2ccccc12
  80, /, -4, 80
> CC(=O)c1ccc(NC(=O)CSc2nc(-c3cccc(F)c3)nc3c2c(=O)n(C)c(=O)n3C)cc1
  83, 103, /, 96
> COc1cc(OC)c(NC(=O)n2nc(C)c3ccccc32)cc1Cl
  /, 99, -30, /
> CCOC(=O)C1=C(C)N=c2s/c(=C\c3cc(Br)c(O)c(OC)c3)c(=O)n2C1c1ccc(OC)cc1 (stereo unspecified)
  /, 164, 12, /
> Cc1nc(N2CCCCC2)c2c(C)c(C(=O)Nc3cccc(C(F)(F)F)c3)sc2n1
  96, 99, /, 85
> Cc1ccc(-c2noc(-c3cccn(CC(=O)Nc4cccc(F)c4)c3=O)n2)cc1
  /, 108, -28, /
> Clc1cccc(NCn2nnc3ccccc32)c1Cl
  102, /, -37, 80
> CCCNC(=O)C1CCC(Cn2c(=O)c3sccc3n(CC(=O)N3CCCC(C)C3)c2=O)CC1 (stereo unspecified)
  89, 101, /, 91
> CC1(C)NC(=O)N(CC(O)COc2ccc(N3C(=O)c4ccccc4C3=O)cc2)C1=O (stereo unspecified)
  79, 95, -49, 104
> CCC1c2ccc(C)n2CCN1C(=O)Nc1ccccc1OC (stereo unspecified)
  /, 107, -24, /
> COc1ccccc1CCNC(=O)Cc1c(C)c2cc3c(C(C)(C)C)coc3c(C)c2oc1=O
  89, 107, 1, 93
> Cc1ccc(NC(=O)c2cc(S(=O)(=O)N3CCCCC3)c[nH]2)cc1F
  92, 110, /, 93
> COc1cccc(CNC(=O)C(=O)NCC(c2ccco2)S(=O)(=O)c2cccs2)c1 (stereo unspecified)
  120, 100, /, 88
> NCC(=O)Nc1ccc(Br)cc1
  100, 95, -16, 82
> COc1ccccc1C(=O)Nc1ccc(N2CCN(S(C)(=O)=O)CC2)cc1
  110, 97, -7, 82
> CC1CCCN(CCCNC(=O)CCn2nc(-c3ccccc3)ccc2=O)C1 (stereo unspecified)
  96, 98, /, 85

Among those listed so far, these have an NH in an aromatic ring:
Fields: Sa growth 42C, GIV Gai3 FP, HCMV UL50-53 inh, Sa growth 42C second temp
> O=C(NCC(c1ccccc1)c1c[nH]c2ccccc12)c1ccccc1Br (stereo unspecified)
  /, 105, -20, /
> Cc1ccc(NC(=O)c2cc(S(=O)(=O)N3CCCCC3)c[nH]2)cc1F
  92, 110, /, 93

(listing goes on)
Fields: Sa growth 42C, GIV Gai3 FP, HCMV UL50-53 inh, Sa growth 42C second temp
> Cc1ccccc1COc1ccccc1C1CC(=O)Nc2c1c(C)nn2-c1ccc2nncn2n1 (stereo unspecified)
  /, 98, -20, /
> CCc1ccc2oc(C(=O)Nc3sc4c(c3C(=O)NC)CCCC4)cc(=O)c2c1
  92, 99, -23, 85
> CCCC(C)COC(=O)C1=C(C)NC(=O)NC1c1cc2c(cc1Br)OCO2 (stereo unspecified)
  /, 103, -18, /
> COc1ccc2c(Sc3ccc(Cl)cc3)c(C(=O)NCCCN3CCN(C)CC3)[nH]c2c1
  123, 109, /, 54
> O=S(=O)(Nc1cccnc1)c1cc(Cl)sc1Cl
  84, 100, -22, 89
> CCN(CC)S(=O)(=O)c1ccc2c(c1)nc(CN(C)C(=O)c1ccc(F)cc1)n2C
  /, 104, -14, /
> COc1cc(C(=O)Nc2ccc3oc(-c4ccccc4Cl)nc3c2)cc(OC)c1OC
  /, 104, -22, /
> O=C(COC(=O)COc1ccc(Cl)cc1)Nc1ccc(Br)cc1F
  94, /, -27, 92
> O=C(O)CSc1nc2ccc(Cl)cc2[nH]1
  99, 97, -21, 93
> CCC(=O)N1CCc2cc(Br)cc(S(=O)(=O)N3CCCC(C(=O)Nc4cccc(Cl)c4C)C3)c21 (stereo unspecified)
  113, 105, 17, 105
> O=S(=O)(Cc1ccc(Cl)cc1)N1CCc2cc3ccccc3nc21
  /, 105, -17, /
> COc1ccc2c(-c3ccc(Cl)cc3)c(C)oc2c1
  139, /, -6, 89
> CC(C)(C)OC(=O)C[n+]1cccc(C(N)=O)c1
  101, 102, /, 93
> Cc1nc(SCC(=O)Nc2ccc3c(c2)OCCO3)n(CC(C)C)c1C
  98, /, 8, 85
> COc1cccc(-c2[nH]c3c(c2-c2c(-n4cccc4)n(C)c(=O)[nH]c2=O)c(=O)[nH]c(=O)n3C)c1
  106, 103, -12, 88
> Cc1nc2nc(NC(=O)c3ccc(F)cc3)[nH]n2c(=O)c1Cl
  99, 103, -5, 90
> CCCNC(=O)CCNS(=O)(=O)c1ccc2c(c1)c(=O)n(C)c(=O)n2C
  109, 104, -32, 87
> Cc1ccc(C(C)C)c(OCc2ccc(C(=O)Nc3ccc(S(N)(=O)=O)cc3C)o2)c1
  87, 103, -24, 89
> N#Cc1ccc(COC(=O)C2CCC(=O)N2)cc1 (stereo unspecified)
  95, /, 9, 92
> O=C(CNC(=O)C12CC3CC(CC(C3)C1)C2)OCc1nnc(-c2ccccc2)o1
  133, /, -1, 97
> FC(F)(F)c1ccccc1NC(=S)Nc1ccc(-c2csnn2)cc1
  106, 111, -10, 97
> CCn1cnc2cc(NCc3nc4ccccc4n3Cc3ccccc3)ccc21
  92, 101, -24, 49
> Cc1cc2ccccc2c(=O)n1CC(=O)NCC(=O)Nc1nc2ccccc2s1
  97, 93, /, 97
> O=C(Nc1ccon1)c1ccccc1F
  98, 108, 14, 107
> CCOc1ccc(-n2c(CCC(=O)OC3CCOC3=O)nc3ccccc3c2=O)cc1 (stereo unspecified)
  86, /, 6, 94
> CCCCc1ccc(NC(=O)C(=O)NCCN2CCN(Cc3ccc([N+](=O)[O-])cc3)CC2)cc1
  /, 102, -27, /
> CC(C)(O)c1cc(C(F)(F)F)cc(C(F)(F)F)c1
  96, 98, -18, 90
> CCc1cccc(C)c1NC(=O)c1nc2ccccc2nc1N1CCCCC1
  105, 102, /, 86
> CCN(CC)S(=O)(=O)c1ccc(OC)cc1
  93, /, -14, 92
> CC(=O)n1c(/C=C2/N=C(c3cccs3)OC2=O)cc2ccccc21
  93, 95, -31, 84
> CCN1C(=O)/C(=C/C=C2/N(CC)c3ccc(S(=O)(=O)N(C)C)cc3N2CC)SC1=S
  /, 119, -28, /
> CCN(CCCNC(=O)c1cc2cc3ccc(OC)cc3nc2s1)c1cccc(C)c1
  111, 103, -21, 95
> COC(=O)C1(N2CCOCC2)/C(=C(\O)c2ccccc2)C(=O)C(=O)N1c1ccccc1 (stereo unspecified)
  97, /, -13, 90
> CN1CCN(c2cc3c(c4c2[nH]c2ccccc24)C(=O)CC(C)(C)C3)CC1
  110, 97, -30, 49
> Cc1nc(-c2ccccc2)sc1C(=O)Sc1ccc(Cl)cc1
  90, 103, /, 94
> CCCn1c2ccccc2c2cnn(CC(=O)NCC3CCN(Cc4ccc(C)cc4)CC3)c(=O)c21
  67, 101, /, 76
> O=C(NCCCN1CCOCC1)c1ccc2c(c1)N(Cc1cccc(Cl)c1)C(=O)c1ccccc1S2=O (stereo unspecified)
  100, 99, 11, 74
> CN(CC1COc2ccccc2O1)C(=O)c1ccc2[nH]c(=O)c(=O)[nH]c2c1 (stereo unspecified)
  74, /, -23, 87
> CNC(=O)N1CCCC(c2cccc(C(=O)N(C)C)c2)C1 (stereo unspecified)
  /, 107, -4, /
> Cc1ccc(CSCCNS(=O)(=O)c2ccccc2)cc1
  97, 101, -14, 77
> Cc1cc(C(F)(F)F)c(C#N)c(SCC(=O)c2ccccc2)n1
  100, /, -38, 88
> CCOC(=O)C1CCCN(C(=O)c2ccc3c(c2)C(=O)N(Cc2ccco2)C3=O)C1 (stereo unspecified)
  78, /, -26, 96
> Clc1ccc(-c2nnn3c2nc(NCc2ccc4c(c2)OCO4)c2ccccc23)cc1
  112, 105, -24, 91
> S=c1oc(-c2ccco2)nn1CN1CCc2ccccc2C1
  77, /, -44, 91
> c1ccc(-n2ncc3c(N4CCN(CCOc5cccc6ccccc56)CC4)ncnc32)cc1
  97, 100, -29, 86
> CCOC(=O)c1sc2nc(Cc3ccccc3)nc(NCC3CCCO3)c2c1C (stereo unspecified)
  /, 110, -1, /
> O=C(CSc1nnc(-c2cnccn2)s1)c1ccccc1
  102, 102, -8, 99
> CC(=O)NCCC(=O)Nc1ccc(N(c2ccccc2)C(C)C)cc1
  138, /, -19, 79
> FC(F)(F)c1cc(N2CCCCC2)c2cccc(Cl)c2n1
  96, 99, -2, 87
> CC(C)c1ccc(N(C)C(=O)Cc2c(C(=O)O)n(C)c3ccccc23)cc1
  167, 105, /, 65
> O=C(NCC1CCCO1)c1noc2c1CSc1ccccc1-2 (stereo unspecified)
  121, 107, -14, 89
> CCN1CCCC1CNC(=O)C1CCN(C2=NS(=O)(=O)C(c3ccc(C(C)C)cc3)=C2C)CC1 (stereo unspecified)
  /, 99, -65, /
> CCOC(=O)Cn1cc(/C=C(\C#N)Sc2nc3ccccc3s2)c2ccccc21
  119, 112, -4, 109
> Cc1cc(Sc2ccccc2NC(=O)Nc2ccc(F)c(Cl)c2)n2ncnc2n1
  /, 101, -22, /
> O=C(SCC(=O)N1CCc2ccccc21)c1ccccc1
  101, /, 14, 100
> CCN(CC)C(=O)/C(=C/c1ccccc1)c1ccccc1
  102, 105, -2, 83
> Cc1cccc(NC(=O)c2[nH]c(C)c(S(=O)(=O)N3CCCC3)c2C)c1C
  /, 109, -28, /
> Nc1nc(-c2cccnc2)nn1C(=O)Cc1ccccc1
  102, 107, -24, 86
> Cc1cccc(C(=O)Nc2ccc3c(c2)NC(=O)CO3)c1
  /, 111, -17, /
> CCc1nc2sc(C#N)c(N)c2cc1C
  89, /, -48, 89

Continued.
Fields: Sa growth 42C, GIV Gai3 FP, HCMV UL50-53 inh, Sa growth 42C second temp
> Cc1ccc2cc(CN3CCN(C)CC3)c(Cl)nc2c1C
  113, /, -19, 95
> COc1ccc(CNC(=O)C(CC(=O)N2CCOCC2)n2ccnc2)cc1 (stereo unspecified)
  112, /, -28, 86
> CCCCC(=O)Nc1ccc2nc(SCC(=O)N3CCOCC3)sc2c1
  108, 104&93, 2&-13, 88
> CCc1cc2c(cc3n2CC(C)(C(=O)NC2CCCCC2)N(CCCN2CCOCC2)C3=O)s1 (stereo unspecified)
  /, 95, -2, /
> O=C(O)Cn1ncc2c3ccccc3n(Cc3cccc(Cl)c3)c2c1=O
  81, 253, /, 66
> N#CSCCCOc1ccccc1Br
  99, 104, -21, 55
> Cc1ccc(CN2CCN(N=Cc3ccccc3OCC(=O)O)CC2)c(C)c1
  88, 101, -27, 88
> O=C1C=CC(=O)N1c1ccc(S(=O)(=O)Nc2ccc(C(F)(F)F)cc2)cc1
  74, 103, -23, 51
> COCCCN1C(=Nc2cccnc2)SCC1(O)c1ccccc1 (stereo unspecified)
  95, /, -22, 90
> CN1CCc2ccccc2Cc2[nH]c3ccccc3c2CC1
  /, 100, -3, /
> COc1ccc(/C=C/C(=O)Nc2ccc(-n3nncc3-c3ccc(OC)c(OC)c3)cc2)cc1OC
  80, 105, /, 83
> CCNC(=O)CCn1nc(-c2ccccc2)c2ccccc2c1=O
  72, 104, 11, 87
> CCOc1ccc(-c2csc(-c3c(N)c(C(=O)c4ccc5c(c4)OCO5)n4ccccc34)n2)cc1
  93, 107, 4, 95
> O=C(NC1CCCCC1)NC1CCCc2ccccc21 (stereo unspecified)
  109, 104, -30, 95
> CCONC(=O)Nc1ccccc1
  104, 100, 16, 99

Ordered by heavy-atom count (low to high): some entries from above
Fields: Sa growth 42C, GIV Gai3 FP, HCMV UL50-53 inh, Sa growth 42C second temp
> N#CSCCCOc1ccccc1Br
  99, 104, -21, 55
> Cc1ccc2cc(CN3CCN(C)CC3)c(Cl)nc2c1C
  113, /, -19, 95
> COc1ccc(NC(=O)c2nn(C)c(C(F)(F)F)c2Cl)c(C)c1
  /, 102, 7, /
> Cc1ccc(CN2CCN(N=Cc3ccccc3OCC(=O)O)CC2)c(C)c1
  88, 101, -27, 88
